Assay outcomes: PubChem, several laboratories
Autofluor counter: flagged as autofluorescent in microsphere protease counterscreen; compound autofluorescence counterscreen, microsphere flow cytometry; hits give high values; fluorescence intensity (concentration not given with the values); 3.1% of 360,000 active;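 active means at least 3 SD above the mean of all compounds, about 16000 in these data; inconclusive means too few beads counted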;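 further: 100 nL of 1 mM stock went into each well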
Sa ugtP lethal: kills S. aureus RN4220 lacking UgtP. 0.54% of 330,000 active. S. aureus RN4220 ugtP deletion, OD600 growth, 16 h; some inactives read as strong as hits. growth inhibition, % (no concentration beside the values). AID 1259309;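 active means z-score under -3 and OD600 up to 0.15 on both plates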;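 further: plate controls were untreated wells for no effect and antibiotic for full effect; wells of about 80 µL received 100 nL stock; the first replicate is given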
BJeLR viability: BJeLR cell viability loss. inhibition, % (no concentration beside the values). 0.17% of 300,000 active. BJeLR (HRASV12) viability, CellTiter-Glo ATP luminescence, 48 h; reference of the scale not given here;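 active means replicate mean above 50%; inconclusive means above 50% but judged a plate artefact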;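 further: 50 nL library stock added to about 25 µL; numbers are from one replicate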
Sa RN4220 lethal: kills Staphylococcus aureus RN4220. S. aureus RN4220 growth, OD600, 16 h. inhibition, % (no concentration beside the values). 0.33% of 330,000 active. AID 1259311;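 active means z-score of -3 or lower and OD600 up to 0.18 on both plates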;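 further: plate controls were untreated cells for no effect and reference antibiotic for full effect; stock transfer was 100 nL into about 80 µL; one replicate is shown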
Mtb hypoxia rep: inhibitors of hypoxia-regulated fluorescent reporter in Mycobacterium tuberculosis; M. tuberculosis hypoxia-regulated fluorescent reporter, fluorescence; fluorescence inhibition, % (test concentration not listed); 0.1% of 300,000 active;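 active means 35 to 45% if threefold the growth effect, above 45% if 1.5-fold the growth effect; inactive means the rest, general growth blockers included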;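 further: wells of about 50 µL received 100 nL stock; 0% = vehicle wells and 100% = reference inhibitor wells; whole bacteria with a GFP reporter of the hypoxia response; strong numbers were not always called active; many hits fall short of the cut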
PrP UTR inh: suppresses PrP 5' UTR mRNA reporter expression; AID 488862; cell-based PrP 5' UTR mRNA reporter, plate reader; 0.35% of 340,000 active; inhibition, % (test concentration not listed);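 active means every replicate at 50% or more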;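 further: 0 = median of the neutral control wells; tested in H4 reporter cells; numbers are from one replicate; inactives centre near -14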
Mtb hypoxia rep growth: also measured in Mtb hypoxia rep; calls as there; growth inhibition, %; measured here: M. tuberculosis growth (absorbance);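 0% = vehicle and 100% = reference antibiotic; read after six days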
The depositor's hits bear a star; ? = inconclusive; nt = not tested or not shown. No enrichment for hits; any-hit rate near 4%.

Start of the data: the first two compounds, ahead of the listing:
SMILES	Autofluor counter	Sa ugtP lethal	BJeLR viability	Sa RN4220 lethal	Mtb hypoxia rep	Mtb hypoxia rep growth	PrP UTR inh
O=C(Nc1ccc2c(c1)CCC2)c1ccccc1	8694	8	0	2.3	17	16	-77
CCC1(c2ccccc2)NC(=O)N(CC(=O)Nc2cc(S(=O)(=O)N3CCCCCC3)ccc2OC)C1=O (stereo not given)	nt	-3	3	-1.3	7	1	-5

Main list, from the start:
SMILES	Autofluor counter	Sa ugtP lethal	BJeLR viability	Sa RN4220 lethal	Mtb hypoxia rep	Mtb hypoxia rep growth	PrP UTR inh
O=C(Nc1ccc2c(c1)CCC2)c1ccccc1	8694	8	0	2.3	17	16	-77
CCC1(c2ccccc2)NC(=O)N(CC(=O)Nc2cc(S(=O)(=O)N3CCCCCC3)ccc2OC)C1=O (stereo not given)	nt	-3	3	-1.3	7	1	-5
S=c1[nH]nc(SCc2ccccc2)c2[nH]cnc12	2932	6	nt	2.8	22	11	-31
Oc1ccc2ccccc2c1CNc1cnc2ccccc2c1	13127	-2	-7	4.1	9	2	-13
Clc1ccc(-c2c[n+]3c(n2-c2ccccc2)SCC3)cc1	4330	3	-5	3.7	19	7	-11
CCC(=O)Nc1ccc2c(c1)ncn2-c1ccccc1OC	4318	-5	-3	6.2	nt	nt	-14
CCOc1ccccc1-c1nc(-c2cccc(Br)c2)no1	10516	2	13	-3.4	-4	3	-24
CC(C)OC(=O)NCCOC(=O)Nc1ccccc1Cl	4034	-4	2	9.0	15	5	-80
CCOc1ccc(NC(=O)c2sc(NC(C)=O)c(C(=O)OC)c2C)cc1	4877	9	2	-1.9	13	13	-11
Cc1ccc(C)c(NC(=O)CN(C)C(=O)Cc2ccccc2)c1	2704	nt	10	nt	nt	nt	-16
CCN1C(=O)CSC1=Nc1cccc(C(=O)O)c1	4032	9	-4	0.9	6	11	-16
COc1cc(C=NNc2ccccn2)cc(OC)c1O	nt	9	nt	6.6	-2	5	nt
Cn1c(C(=O)NCC2CCCO2)cc2oc3ccccc3c21 (stereo not given)	nt	5	5	-1.1	5	12	-72
O=C(CSc1nc2ccccc2o1)N1CCN(C(=O)c2ccco2)CC1	3419	13	-9	-2.6	nt	nt	-11
C=CCn1c(-c2ccc(Cl)cc2)cnc1SC(C)C(N)=O (stereo not given)	4917	13	8	4.0	4	12	-15
CN(C(=O)c1cccc(NC(=O)Cc2cccc(NC(=O)C3CCCN(C(=O)C4CCCCC4)C3)c2)c1)C1CC1 (stereo not given)	3676	-2	nt	1.0	-3	9	-17
CCOc1ccc2nc(N(CCN(C)C)C(=O)c3ccc4c(c3)CCCC4)sc2c1	nt	-25	3	-3.8	5	-2	-6
O=C(NCCCNC(=O)c1cc(Cl)ccc1Cl)c1ccco1	2776	14	1	-4.4	4	-12	-16
CC(=O)N1CCN(c2ccccc2NC(=O)COc2ccccc2C)CC1	3178	2	-1	6.6	18	1	-19
CCOC(=O)c1sc(NC(=O)CC2OC(=O)c3ccccc32)nc1C (stereo not given)	5904	5	nt	5.2	1	1	-7
COc1cc(-c2noc(C)c2C#Cc2ccccn2)cc(OC)c1OC	3446	-7	14	13	11	13	18
COc1ccc(C(=O)COC(=O)CCc2nc3ccccc3[nH]c2=O)cc1Br	4167	5	-4	4.3	3	-6	-14
CCCN1C(=O)CSC1=Nc1ccccc1	3969	6	-2	4.4	13	9	-27
O=C(Nc1ccc(-c2nnc(-c3ccccc3)o2)cc1)C(F)(F)F	2555	6	1	-4.4	-2	-4	-28
COc1ccc(C(=O)NCCCNC(=O)c2ccccn2)cc1	5814	0	-18	0.5	9	-5	-20
C=CCN(CC(=O)NC1CCS(=O)(=O)C1)S(=O)(=O)c1ccccc1C(F)(F)F (stereo not given)	4136	11	5	4.4	6	22	-32
C/C(C=NNC(=O)c1ccncc1)=C\c1ccco1	nt	1	nt	-2.3	6	0	nt
O=C(C(=C([O-])c1ccccc1)[n+]1ccc2ccccc2c1)c1ccccc1	nt	4	nt	7.4	-1	9	nt
Cc1ccc(-c2csc(N(Cc3ccco3)C(=O)c3cccs3)n2)cc1	2854	76	nt	-13	7	12	-16
CC(=NNC(=O)C(=O)Nc1cc(Cl)ccc1Cl)c1ccncc1	nt	-1	nt	2.4	-1	6	nt
O=C(NC1CC1)C1CCN(C2CCN(C(=O)c3ccc4cccc(F)c4n3)CC2)CC1	4233	2	-5	2.2	-4	-9	-9
CCc1c(C)sc(NC(NC(C)=O)(C(=O)OC)C(F)(F)F)c1C#N (stereo not given)	2421	3	16	4.3	0	4	-16
CCOC(=O)C1=C(C)NC2=C(C(=O)CC(C)(C)C2)C1c1coc2ccccc2c1=O (stereo not given)	7763	2	-2	11	1	8	-11
COc1ccc(NC2CCCN(C(=O)c3ccncc3)C2)cc1 (stereo not given)	4279	-3	4	-0.9	1	-6	7
O=C(O)c1nn(-c2ccccc2)ccc1=O	4441	1	10	-1.2	-5	5	-17
Cc1ccc(/C=C/C(=O)OCC(=O)NCCN2C(=O)CSC2=O)o1	3428	6	3	11	12	16	-16
O=C1CCC(C(=O)Nc2ccccc2)N1 (stereo not given)	2985	2	-2	3.0	nt	nt	-15
CN1CCC(NCCC(c2ccc(F)cc2)c2ccc(Cl)cc2)CC1 (stereo not given)	2866	-6	19	-7.6	nt	nt	-15
Cc1c(Cl)cccc1NC(=S)NN1CCOCC1	2375	10	-2	-2.5	nt	nt	-15
COc1cc(OC)c([C@H]2C=C(C)[C@H]3C[C@@H]2C3(C)C)c(OC)c1	4175	94*	-8	-6.6	11	-6	-21
Cc1ccsc1/C=C/c1ccc2ccccc2n1	11025	22	17	1.3	2	8	-15
CCOc1ccc(C2CC=C(C(=O)O)CN2S(=O)(=O)c2ccc(C)cc2)cc1 (stereo not given)	nt	-6	nt	6.6	10	17	nt
Cc1ccc(C(=O)NCC(c2ccc(F)cc2)N2CCOCC2)s1 (stereo not given)	4071	5	nt	1.8	2	5	-20
CC(C)Oc1ccccc1C1CC(=O)Nc2c1c(=O)n(C)c(=O)n2C (stereo not given)	nt	7	-2	-0.5	3	6	nt
Cc1cc(C(=O)COC(=O)c2ccc(NC(=O)CC#N)cc2)c(C)n1C1CC1	nt	-3	nt	-0.5	11	15	-58
Cc1nnc(C)n1/N=C/c1cccc([N+](=O)[O-])c1	4614	nt	7	nt	nt	nt	-4
Cc1ccc(N)cc1O	5872	2	nt	3.0	6	10	-7
CC(NC(=O)c1ccc(OC2CCN(C(=O)c3cccnc3)CC2)cc1)C1CC1 (stereo not given)	4574	-1	6	0.6	-2	3	-25
CCOC(=O)N1CCN(CC(=O)Nc2ccc(C)cc2)CC1	10118	4	-15	4.2	13	7	-5
CC(C)CC(=O)NS(=O)(=O)c1ccc(NS(C)(=O)=O)cc1	3332	10	-3	2.5	-8	6	-6
CCOc1ccc(N2CC(C(=O)NCc3ccccn3)CC2=O)cc1 (stereo not given)	6191	2	-13	1.0	-3	8	-4
Cc1cccc(NC(=O)N2CCCC(CNC(=O)c3ccccc3Cl)C2)c1C (stereo not given)	5519	7	2	2.2	5	-3	5
CC(=O)c1ccc(N2CCN(C(=S)Nc3ccc(Cl)c(Cl)c3)CC2)cc1	2261	-6	7	-2.3	3	8	-11
Cc1cccn2c(=O)nc(SCC(=O)NCc3ccc(F)cc3)nc12	6157	2	3	2.6	-2	0	-16
CCN(CC)S(=O)(=O)c1ccc(N2CCOCC2)c(NC(=O)CNCCc2ccccc2)c1	4083	2	3	8.1	5	13	13
CC(=O)N1c2ccccc2C2(C)C(C1(C)C)C2(Cl)Cl (stereo not given)	4386	10	-5	5.0	3	-4	-24
O=C(NCc1ccc(F)cc1)c1ccc(N2CCc3ccccc32)c([N+](=O)[O-])c1	2034	-6	-18	-3.1	8	6	-6
CCCCn1c(=O)c2c(c3ccccc31)OCC(=O)N2	nt	1	-1	1.4	nt	nt	nt
O=C(c1cccc(C(=O)N2CCN(c3ccccc3F)CC2)n1)N1CCN(c2ccccc2F)CC1	9041	1	-9	4.6	5	6	-16
CCOC(=O)c1c(CC(C)C)csc1NC(=O)COC(=O)c1ccc(O)cc1	?	-15	nt	-4.5	-3	-8	-7

Twelve structures out of the list, ordered by number of heavy atoms, highest first.
SMILES	Autofluor counter	Sa ugtP lethal	BJeLR viability	Sa RN4220 lethal	Mtb hypoxia rep	Mtb hypoxia rep growth	PrP UTR inh
O=C(c1cccc(C(=O)N2CCN(c3ccccc3F)CC2)n1)N1CCN(c2ccccc2F)CC1	9041	1	-9	4.6	5	6	-16
CCN(CC)S(=O)(=O)c1ccc(N2CCOCC2)c(NC(=O)CNCCc2ccccc2)c1	4083	2	3	8.1	5	13	13
O=C(NCc1ccc(F)cc1)c1ccc(N2CCc3ccccc32)c([N+](=O)[O-])c1	2034	-6	-18	-3.1	8	6	-6
Cc1cc(C(=O)COC(=O)c2ccc(NC(=O)CC#N)cc2)c(C)n1C1CC1	nt	-3	nt	-0.5	11	15	-58
CC(=O)c1ccc(N2CCN(C(=S)Nc3ccc(Cl)c(Cl)c3)CC2)cc1	2261	-6	7	-2.3	3	8	-11
CC(C)Oc1ccccc1C1CC(=O)Nc2c1c(=O)n(C)c(=O)n2C (stereo not given)	nt	7	-2	-0.5	3	6	nt
Cc1ccc(C(=O)NCC(c2ccc(F)cc2)N2CCOCC2)s1 (stereo not given)	4071	5	nt	1.8	2	5	-20
CCOC(=O)N1CCN(CC(=O)Nc2ccc(C)cc2)CC1	10118	4	-15	4.2	13	7	-5
CC(C)CC(=O)NS(=O)(=O)c1ccc(NS(C)(=O)=O)cc1	3332	10	-3	2.5	-8	6	-6
CCCCn1c(=O)c2c(c3ccccc31)OCC(=O)N2	nt	1	-1	1.4	nt	nt	nt
Cc1ccsc1/C=C/c1ccc2ccccc2n1	11025	22	17	1.3	2	8	-15
Cc1ccc(N)cc1O	5872	2	nt	3.0	6	10	-7

(more compounds)
SMILES	Autofluor counter	Sa ugtP lethal	BJeLR viability	Sa RN4220 lethal	Mtb hypoxia rep	Mtb hypoxia rep growth	PrP UTR inh
S=C(NC1CCCC1)N1CCN(c2ncccn2)CC1	2446	9	7	4.2	16	0	-41
O=C(NC1CCN(S(=O)(=O)c2ccccc2F)CC1)c1ccco1	3807	6	-1	-0.2	1	8	-15
CCOc1ccc2nc(SCC(=O)N3CCN(C(=O)c4ccco4)CC3)sc2c1	2033	-4	4	4.1	nt	nt	-16
Cc1ccccc1N(CC(=O)NC1CCCCC1)C(=O)CCCC(=O)Nc1ccccn1	3937	1	2	0.3	9	6	-24
N#CCC(=N)N1CCN(c2ccc(Cl)cc2)CC1	3083	-3	-9	0.5	nt	nt	-27
COCCNC(=S)NCCCNc1nc2cc3c(cc2cc1C#N)OCO3	9424	-1	-12	7.8	-4	3	-19
CCN(CC)C(=O)Cn1c(C)c(/C=C/c2cc[n+](C)cc2)c2ccccc21	3659	nt	3	nt	nt	nt	-23
O=C(CSc1nnc(-c2ccco2)o1)Nc1c(F)cccc1F	3801	-5	nt	-1.1	0	5	-6
COc1ccc(-c2c(C#CC(C)(C)O)c3ccccc3n2C)cc1	3968	4	nt	5.6	14	13	-13
CC(=O)NC(Cc1c[nH]c2ccccc12)C(=O)NCCc1ccccn1 (stereo not given)	4411	5	-6	0.6	16	1	-15
Cn1c(O)c(/C=N/NC(=O)c2cc3ccccc3cc2O)c2ccccc21	3541	nt	6	nt	nt	nt	-26
Cc1ccccc1CS(=O)(=O)c1nnc([C@H](CC(C)C)NC(=O)OC(C)(C)C)o1	10933	-3	-2	6.8	-2	2	-14
COc1ccccc1N(C(=O)c1ccco1)C(C(=O)NC1CCCC1)c1cccnc1 (stereo not given)	2622	-8	4	-1.2	2	2	-5
CC(=O)N(N=Cc1ccc(C)cc1)c1nc(CCl)cs1	nt	5	nt	2.2	nt	nt	nt
COc1ccc(NC(=S)NC2CC3CCC(C2)N3Cc2ccco2)cc1 (stereo not given)	4246	5	-2	-0.2	4	-4	-18
CCN(C(=O)[C@@H]1CCCN1C(=O)c1cccs1)c1nc2cc(Cl)ccc2s1	8071	77	1	9.2	2	1	-14
O=C(COC(=O)C1=COCCO1)NC1CCCCCCC1	2306	0	6	2.6	-3	14	-10
Cc1ccc(-c2nc3sc(C#N)c(N)n3c(=O)c2C#N)cc1	5000	6	-2	1.9	7	0	-24
